Source: PubChem BioAssay (several laboratories)
Vif A3G – HIV-1 Vif–A3G interaction blockers – biochemical, TR-FRET, GST-Vif 1-94, biotin-A3G peptide, dose response retest, primary screen (AID 1117319); TR-FRET GST-Vif / biotin-A3G peptide binding; higher % means a stronger effect; test concentration not given here; strong numbers were not always called active; inhibition, %; hits with a dose series show IC50 in µM; actives 0.57% (n = 260,000);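 active = above the screen mean plus three standard deviations and confirmed in dose response; inconclusive = results disagree or hit not tested in dose response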;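 also: Vif residues 1-94 fused to GST binding biotinylated APOBEC3G peptide 110-148; 0% = full assay without inhibitor and 100% = GST in place of GST-Vif; retest series ran down from 100 µM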
HNF4A DNA FP – change in binding of human HNF4 alpha to DNA; AID 1224865; P41235; HNF4a-FITC DNA binding, fluorescence polarization, 1 h; actives 0.3% (n = 360,000); activity change, % at 10 µM; in the data active = activity change above about 30%, passing the limit was not always enough;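 also: controls were the assay level and a saturating level of protein; the project sought stronger binding though the title names inhibitors; some compounds called inactive have numbers as strong as hits; positive values seem to mean higher polarization but the record does not say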
FGF22 binding – shifts melting point of recombinant human FGF22; recombinant FGF22 thermal shift, SYPRO orange fluorescence; percent of sucrose octasulfate shift, DMSO zero; actives 1.5% (n = 340,000); AID 651658; calls only at 9.99 µM; Q9HCT0;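 active = melting point raised past a set limit in the mean and every replicate; inconclusive = no clear call; three in four hits are not shown here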
Target sequence (Q9HCT0 whole entry, looked up): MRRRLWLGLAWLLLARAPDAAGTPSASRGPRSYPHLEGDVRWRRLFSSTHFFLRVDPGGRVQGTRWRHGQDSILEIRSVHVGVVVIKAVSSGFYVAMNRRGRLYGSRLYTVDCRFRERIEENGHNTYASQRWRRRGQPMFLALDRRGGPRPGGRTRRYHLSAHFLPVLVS
ALR H2O2 inh – blocks human ALR sulfhydryl oxidase activity; P55789; purified ALR, DTT oxidation, H2O2 HRP-luminol luminescence; inhibition, % (no concentration beside the values); actives 3.8% (n = 290,000); AID 485317;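 active = mean and each replicate at 75% or more; inconclusive = only one of the two met; inactive = neither met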;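 also: stock transfer was 7.5 nL into about 7.5 µL; 0% = neutral wells and 100% = wells with inactivated enzyme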
Target sequence (P55789 whole entry, looked up): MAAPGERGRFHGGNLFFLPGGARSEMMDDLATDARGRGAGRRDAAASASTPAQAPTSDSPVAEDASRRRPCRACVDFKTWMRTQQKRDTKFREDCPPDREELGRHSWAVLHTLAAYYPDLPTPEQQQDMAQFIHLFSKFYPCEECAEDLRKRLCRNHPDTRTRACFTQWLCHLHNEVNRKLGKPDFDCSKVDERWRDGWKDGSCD
AF4-AF9 inh – inhibitors of human MLL-AF4/AF9 interaction. AlphaScreen, biotin-AF4 peptide binding to FLAG-AF9. inhibition, % at 10 µM. actives 0.47% (n = 350,000);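 active = every replicate reaching a set inhibition limit, whatever the replicate mean, cut at about 25% in these data; inconclusive = mean inhibition reaches that limit but some replicates miss it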;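 also: 0% = plate neutral control median and 100% = total signal loss; the record names both 10 and 1 µM as test concentration; the first replicate is given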
Target sequence (P42568 whole entry, looked up): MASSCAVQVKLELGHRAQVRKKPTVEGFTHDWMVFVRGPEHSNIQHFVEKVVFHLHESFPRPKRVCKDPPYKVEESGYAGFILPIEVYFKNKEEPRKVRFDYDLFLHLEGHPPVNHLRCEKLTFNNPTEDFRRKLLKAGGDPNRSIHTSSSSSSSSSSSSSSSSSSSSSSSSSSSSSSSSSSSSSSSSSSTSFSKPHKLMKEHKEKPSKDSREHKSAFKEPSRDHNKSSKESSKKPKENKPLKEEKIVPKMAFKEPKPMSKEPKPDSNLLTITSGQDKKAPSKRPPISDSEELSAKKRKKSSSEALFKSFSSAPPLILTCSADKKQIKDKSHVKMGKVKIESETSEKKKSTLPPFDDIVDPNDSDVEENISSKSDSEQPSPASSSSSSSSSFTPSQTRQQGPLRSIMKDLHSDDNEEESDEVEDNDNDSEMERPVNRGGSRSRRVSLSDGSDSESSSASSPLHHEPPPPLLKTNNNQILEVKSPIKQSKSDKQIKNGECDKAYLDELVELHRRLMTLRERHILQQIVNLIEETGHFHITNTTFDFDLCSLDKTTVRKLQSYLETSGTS
Ecoli rRNA inh – inhibits bacterial ribosomal RNA function over humanized ribosomes; E. coli WT GFP vs humanized-ribosome RFP mutants, fluorescence, 24 h; stronger effect = lower value; DMSO median 0, no signal -100; GFP signal change (wild-type ribosome), % (test concentration not listed); actives 1.6% (n = 350,000); AID 720706;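 active = significant combined selectivity score with lowered wild-type GFP, culture density cut under 30%, mutant RFP and density less affected; inactive = any of these conditions unmet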; also: one replicate is shown; some compounds called inactive have numbers as strong as hits
E coli growth – blocks Escherichia coli growth | OD600, 23 h; stronger effect = lower value | actives 0.21% (n = 330,000) | AID 1053175 | OD600 absorbance (no concentration beside the values);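 active = OD600 absorbance below the run mean of sample wells minus 3.6 SD, in any replicate, cut at about 0.56 in these data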;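 also: stock transfer was 300 nL into about 60 µL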
Ecoli rRNA inh OD600 – also measured in Ecoli rRNA inh; calls as there; OD600 change, %; measured here: OD600 growth;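 optical density of the mix in the first replicate; 0 = DMSO median and -100 = no signal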
Ecoli rRNA inh RFP – recorded beside Ecoli rRNA inh, whose call it bears; RFP signal change, %; measured here: RFP humanized mutant strains;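 first replicate; 0 = DMSO median and -100 = no signal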
The depositor's hits bear a star; i = inactive; ? = inconclusive; . = not tested or not shown. Only part of the results is shown (hit frequency here may not be typical).

SMILES	Vif A3G	HNF4A DNA FP	FGF22 binding	ALR H2O2 inh	AF4-AF9 inh	Ecoli rRNA inh	Ecoli rRNA inh OD600	Ecoli rRNA inh RFP	E coli growth
CO[C@@H]1CN(C)C(=O)c2cc(NC(=O)NC(C)C)ccc2OC[C@@H](C)N(C(=O)NC(C)C)C[C@H]1C	.	.	i	.	-1.7	1	1	-0.5	.
O=C(C[C@H]1C[C@H]2c3cc(NC(=O)Cc4ccncc4)ccc3O[C@H]2[C@H](CO)O1)NCc1ccccc1	.	.	i	.	-2.7	1	3	-0.7	.
COc1ccc(C2Nc3ccccc3C(=O)N2Cc2ccco2)cc1COc1ccc(F)cc1 (stereo not drawn)	23%	5.3	.	.	.	.	.	.	0.72
CCOc1cc(C(=O)N(CC)CC(=O)Nc2c(F)cccc2F)ccc1OCC(=O)N1CCCCC1	-2%	-0.8	i	-1	3.0	7	5	0.1	0.71
COc1ccc(C(OC(=O)c2ccco2)C(=O)NCc2ccco2)cc1 (stereo not drawn)	-3%	1.3	.	1	.	.	.	.	0.7
CC(C)(C)c1ccc(NC(=O)COC(=O)C2CCCC2)cc1	-4%	2.4	i	-1	-5.5	-16	-16	-0.9	.
CCOC(=O)c1oc2ccccc2c1NC(=O)CN1CCN(C)CC1	-2%	3.2	.	-4	.	-5	4	-6.3	0.73
Cc1ccccc1CNC(=O)c1ccccc1N(C)S(=O)(=O)c1ccccc1	.	-6.2	i	1	0.9	-19	-19	-3.7	0.63
COc1ccc(CN(C)C[C@H]2OCCCC[C@H](C)Oc3ccc(NS(=O)(=O)c4ccc(Cl)cc4)cc3C(=O)N([C@@H](C)CO)C[C@H]2C)cc1	.	.	i	.	1.9	-1	-28	15	.
S=C(NCCN1CCOCC1)Nc1cccc2ccccc12	-3%	-0.7	.	-92	.	.	.	.	0.72
Oc1ccc(-c2nc3cnccn3c2Nc2ccc3c(c2)OCCO3)cc1	10%	7.5	i	99*	?	-5	-28	-4.5	0.7
Cc1cc(NC(=O)COC(=O)COc2ccc3c(c2)CCC3)no1	-1%	-5.8	.	-1	.	.	.	.	0.65
CC(=O)Nc1ccc(C(=O)OCc2ccc(Cl)cc2)cc1	0%	-1.0	.	-13	.	.	.	.	0.68
COc1ccccc1NC(=O)N1CCCCN2[C@H](C1)[C@H](c1ccc(C#CC3CCCC3)cc1)[C@@H]2CO	.	.	i	.	-1.5	2	0	-1.9	.
COC(=O)CC(NC(=O)c1ccco1)c1cccc2ccccc12 (stereo not drawn)	1%	3.0	.	-3	.	.	.	.	0.76
CC=Cc1ccc2n(c1=O)C[C@@H]1[C@@H](CO)[C@H](C(=O)Nc3ccc(-c4ccccc4)cc3)N(C(C)=O)[C@H]21 (mixture of isomers)	.	.	i	.	5.8	-5	-20	9.1	.
Cc1cc(C(=O)CCl)c(C)n1-c1cccc([N+](=O)[O-])c1	.	-0.4	.	5	3.1	6	5	0.3	0.66
COc1ccc(Cl)cc1N(CC(=O)Nc1ccc2c(c1)OCO2)S(C)(=O)=O	>100µM*	1.1	.	-7	.	.	.	.	0.69
CC(=O)N1[C@@H]2CC3C4CC=C5C[C@@H](O)CC[C@]5(C)C4CC[C@]3(C)[C@@]21C(C)=O (stereo partly drawn)	25%	-1.5	.	2	.	.	.	.	0.66
Cc1ccc(C(=O)NN2CCOCC2)cc1[N+](=O)[O-]	4%	1.5	i	1	0.5	2	9	-2.4	0.69
CO[C@@H]1CN(C)C(=O)c2ccc(NC(=O)C3CC3)cc2OC[C@H](C)N(CC2CC2)C[C@H]1C	.	.	i	.	-11	1	1	-2.8	.
CNC[C@@H]1Oc2ccc(NS(=O)(=O)c3c(C)noc3C)cc2C(=O)N([C@H](C)CO)C[C@@H]1C	.	.	i	.	-5.7	0	9	-2.1	.
CC(C)Cc1nc(N2CCCCC2)c(C#N)c2c1CCC2	1%	3.3	.	7	.	.	.	.	0.74
N#C[C@@H]1N[C@@H](CO)[C@@H]1c1ccccc1	.	.	i	.	-0.7	5	18	-0.4	.
CCOC(=O)C1=C(N)OC2=C(C(=O)CCC2)C1c1ccc2c(c1)OCO2 (stereo not drawn)	.	-0.9	i	38	.	0	-8	-3.7	0.62
COc1cc(/C=C2\SC(c3ccccc3)=NC2=O)cc(Cl)c1O	7%	3.9	i	.	2.6	-11	-8	10	0.7
CCc1ccccc1NC(=S)N(CCCN1CCN(C)CC1)Cc1cccs1	.	1.9	i	.	3.0	13	3	0.6	0.7
O=[N+]([O-])c1cccc(-c2c(-c3ccccc3)ncc3cc(F)ccc23)c1	.	1.0	i	-9	19	-1	-3	6.4	0.7
Cc1ccc(OCC(=O)NCc2ccccc2)c([N+](=O)[O-])n1	11%	-1.6	i	-7	1.0	5	6	-5.2	0.7
Cn1c(=O)c2c(n(C)c1=O)=NC1(CCCCC1)N=2	8%	0.3	.	1	.	.	.	.	0.68

Rewritten as labelled records: part of the list above.
CO[C@@H]1CN(C)C(=O)c2ccc(NC(=O)C3CC3)cc2OC[C@H](C)N(CC2CC2)C[C@H]1C
- Vif A3G: .
- HNF4A DNA FP: .
- FGF22 binding: i
- ALR H2O2 inh: .
- AF4-AF9 inh: -11
- Ecoli rRNA inh: 1
- Ecoli rRNA inh OD600: 1
- Ecoli rRNA inh RFP: -2.8
- E coli growth: .
COc1ccc(Cl)cc1N(CC(=O)Nc1ccc2c(c1)OCO2)S(C)(=O)=O
- Vif A3G: >100µM*
- HNF4A DNA FP: 1.1
- FGF22 binding: .
- ALR H2O2 inh: -7
- AF4-AF9 inh: .
- Ecoli rRNA inh: .
- Ecoli rRNA inh OD600: .
- Ecoli rRNA inh RFP: .
- E coli growth: 0.69

Vif A3G, hit marks shown above.
SMILES	Vif A3G	HNF4A DNA FP	FGF22 binding	ALR H2O2 inh	AF4-AF9 inh	Ecoli rRNA inh	Ecoli rRNA inh OD600	Ecoli rRNA inh RFP	E coli growth
COc1ccc(Cl)cc1N(CC(=O)Nc1ccc2c(c1)OCO2)S(C)(=O)=O	>100µM*	1.1	.	-7	.	.	.	.	0.69

Remaining list, next part
SMILES	Vif A3G	HNF4A DNA FP	FGF22 binding	ALR H2O2 inh	AF4-AF9 inh	Ecoli rRNA inh	Ecoli rRNA inh OD600	Ecoli rRNA inh RFP	E coli growth
Cc1ccc(CN2C(=O)c3ccccc3C2c2nnnn2-c2ccc3c(c2)OCCO3)cc1 (stereo not drawn)	.	-3.6	i	.	1.2	-26	-43	-12	.
CCOc1cc(/C=C(\C#N)C(=O)Nc2ccc(S(N)(=O)=O)cc2)ccc1OCCN1CCOCC1	.	0.1	i	-13	1.3	12	14	4.6	0.73
O=C(O)c1ccc(COc2cccc(CO)c2)cc1	-1%	4.2	i	16	-58	-12	4	-0.5	0.68
COc1cc(OC)c2c(c1)S(=O)(=O)C(c1ccccc1)=C2N	?	2.3	i	6	0.2	-14	-9	-4.7	0.71
Cc1noc(C)c1COc1ccc(C(=O)Nc2nnc(CC(C)C)s2)cc1	-8%	2.5	i	-2	1.0	8	8	-1.4	0.73
O=C(NCc1ccc(C(F)(F)F)cc1)c1cccc2c(-c3cccnc3)coc12	.	3.9	i	.	-1.6	-50	-73	-13	.
COc1cc(C2C(C#N)=C(C)NC3=C2C(=O)c2ccccc23)cc(OC)c1OC (stereo not drawn)	-4%	11	i	1	-72	10	-5	-0.4	0.67
CCC(C)NC(=O)C(CCSC)NC(=O)c1ccccc1 (stereo not drawn)	30%	1.6	.	-9	.	.	.	.	0.72
CCCNC(=O)Nc1cc(OCC)c(N2CCOCC2)cc1OCC	25%	3.4	.	13	.	.	.	.	0.71
COc1ccc(/C=N/NC(=O)c2nonc2N)cc1OC	5%	-1.0	i	-12	2.3	4	-1	-1.6	.
Cc1ccc(NC(=O)c2cc([N+](=O)[O-])ccc2N2CCOCC2)cc1S(=O)(=O)N1CCOCC1	.	4.5	i	3	5.7	-10	-6	3.0	0.7
O=[N+]([O-])c1ccccc1-c1ccc(C(=S)N2CCCC2)o1	14%	1.4	i	20	10	4	15	9.4	0.68
CCOc1ccccc1C(=O)NC(C(=O)N(C)c1c(N)n(Cc2ccccc2)c(=O)[nH]c1=O)C(C)C (stereo not drawn)	.	0.7	i	.	2.4	4	-1	-1.7	0.72
C[C@H]1CN([C@@H](C)CO)C(=O)c2cc(-c3cccc(F)c3)cnc2O[C@H]1CN(C)C	.	.	i	.	-2.9	5	2	-4.0	.
CC(C)C(=O)N1CCN(c2cc(N3CCN(C)CC3)c(F)cc2[N+](=O)[O-])CC1	23%	-2.7	i	-23	-0.9	10	7	-0.9	0.73
CO[C@H]1CN(C)C(=O)c2cc(NC(=O)C3CC3)ccc2OC[C@@H](C)N(Cc2ccccc2)C[C@H]1C	.	.	i	.	-1.4	1	-3	1.0	.
Cc1ccc(S(=O)(=O)NCCc2cn3nc(C)c(C)nc3n2)cc1C	.	1.5	i	-10	-1.0	-6	4	8.1	.
COc1ccc2c3c(n(C)c2c1)[C@@H](CO)N(CC1CCCC1)CC31CCN(C(C)=O)CC1	.	.	i	.	1.8	5	2	0.1	.
Cc1sc2nc(CN(C(=O)NCc3ccccc3)C3CCCC3)[nH]c(=O)c2c1C	7%	-5.2	i	-5	12	4	-4	-3.2	0.72
O=[N+]([O-])c1ccc2c(c1Nc1ccccc1Cl)=NC1(CCCCC1)N=2	.	1.0	i	-2	-1.3	4	4	0.7	0.68
CC1CCCCN1CC(=O)NCc1ccc2c(c1)OCO2 (stereo not drawn)	16%	1.8	.	.	.	.	.	.	0.66
Cc1ccc(C)c(NC(=O)C(OC(=O)c2ccc(NC(=O)CC#N)cc2)c2ccccc2)c1 (stereo not drawn)	5%	10	i	-4	-0.2	2	0	-1.1	0.68
COc1ccc(CNC(=O)CCS(=O)(=O)Cc2cccc(Cl)c2)c(OC)c1	.	1.5	i	.	-3.8	13	10	2.5	0.7
Cn1c(-c2ccc3c(c2)OCO3)cnc1NCc1cccc(Cl)c1	6%	3.5	.	47	.	.	.	.	0.61
COc1ccc(CN(C)C[C@H]2OCCCC[C@H](C)Oc3ccc(N(C)C)cc3C(=O)N([C@@H](C)CO)C[C@@H]2C)cc1	.	.	i	.	10	-2	-2	-3.0	.
COc1ccc(/C=C(/NC(=O)/C=C/c2ccccc2)C(=O)N2CCOCC2)cc1	-6%	-3.2	.	1	.	.	.	.	0.65
CC(=O)Nc1cc(-c2ccc(C(=O)N3CCOCC3)cc2)cn2c(-c3ccc(F)c(Cl)c3)cnc12	.	1.2	i	.	1.3	-1	-5	3.9	.
O=C1CC(c2ccccc2)n2ncnc2N1 (stereo not drawn)	16%	8.2	.	-9	.	.	.	.	0.74
CSc1ccc(S(=O)(=O)NCC(=O)OCC(=O)N2CCCCC2C)cc1[N+](=O)[O-] (stereo not drawn)	-5%	-4.7	.	-8	1.3	-1	8	-1.7	0.66
O=[n+]1cc(-c2ccc(Cl)cc2)n([O-])c2c1CCC2	1%	5.3	i	-18	-3.3	.	.	.	0.66
CCC(=O)OCCNc1cc(Sc2nc3ccccc3s2)c2nonc2c1[N+](=O)[O-]	?	0.3	.	-22	.	.	.	.	0.66
COc1ccccc1NS(=O)(=O)c1ccc(Cl)c(NC(=O)CN2C(=O)c3ccccc3C2=O)c1	22%	-1.1	.	-9	.	.	.	.	0.68
FC(F)(F)c1cccc(NCc2cn3cccnc3n2)c1	-2%	-0.4	.	-13	.	.	.	.	0.67
O=C(NC(=O)c1cccc(Cl)c1)OC[C@@H]1CCCN2CCCCC12 (stereo partly drawn)	-7%	0.4	i	-14	-6.2	4	10	3.9	0.72
Cc1nn(CC(=O)Nc2ccc(N(C)C)cc2)c(C)c1[N+](=O)[O-]	13%	3.7	.	68	.	.	.	.	0.69
CC1CCc2c(sc(NC(=O)c3noc4c3CCCC4)c2C(N)=O)C1 (stereo not drawn)	.	-2.2	i	.	-7.9	8	7	1.2	0.72
